Screening results as filed in PubChem BioAssay.
hNpr1 antagonist = human Npr1 receptor antagonism; HEK293 hNpr1 GloSensor cGMP, ANP-stimulated luminescence; hit rate 1.6% among 76,000; P16066; Potency, µM (doses to about 46.3 µM), without a hit: top-dose activity change, negative = inhibition, most hits filed as inhibitors; active = well fitted inhibition curve with a large enough effect; inconclusive = small, poorly fitted or top-dose-only effect; inactive = no such curve, though single readings can be large or run the other way;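 note: nearly all actives have a fitted effect of over 60% in size; nearly all hits also lower the signal before the agonist is added; a reference antagonist and vehicle were the controls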
Target sequence (P16066 whole entry, looked up): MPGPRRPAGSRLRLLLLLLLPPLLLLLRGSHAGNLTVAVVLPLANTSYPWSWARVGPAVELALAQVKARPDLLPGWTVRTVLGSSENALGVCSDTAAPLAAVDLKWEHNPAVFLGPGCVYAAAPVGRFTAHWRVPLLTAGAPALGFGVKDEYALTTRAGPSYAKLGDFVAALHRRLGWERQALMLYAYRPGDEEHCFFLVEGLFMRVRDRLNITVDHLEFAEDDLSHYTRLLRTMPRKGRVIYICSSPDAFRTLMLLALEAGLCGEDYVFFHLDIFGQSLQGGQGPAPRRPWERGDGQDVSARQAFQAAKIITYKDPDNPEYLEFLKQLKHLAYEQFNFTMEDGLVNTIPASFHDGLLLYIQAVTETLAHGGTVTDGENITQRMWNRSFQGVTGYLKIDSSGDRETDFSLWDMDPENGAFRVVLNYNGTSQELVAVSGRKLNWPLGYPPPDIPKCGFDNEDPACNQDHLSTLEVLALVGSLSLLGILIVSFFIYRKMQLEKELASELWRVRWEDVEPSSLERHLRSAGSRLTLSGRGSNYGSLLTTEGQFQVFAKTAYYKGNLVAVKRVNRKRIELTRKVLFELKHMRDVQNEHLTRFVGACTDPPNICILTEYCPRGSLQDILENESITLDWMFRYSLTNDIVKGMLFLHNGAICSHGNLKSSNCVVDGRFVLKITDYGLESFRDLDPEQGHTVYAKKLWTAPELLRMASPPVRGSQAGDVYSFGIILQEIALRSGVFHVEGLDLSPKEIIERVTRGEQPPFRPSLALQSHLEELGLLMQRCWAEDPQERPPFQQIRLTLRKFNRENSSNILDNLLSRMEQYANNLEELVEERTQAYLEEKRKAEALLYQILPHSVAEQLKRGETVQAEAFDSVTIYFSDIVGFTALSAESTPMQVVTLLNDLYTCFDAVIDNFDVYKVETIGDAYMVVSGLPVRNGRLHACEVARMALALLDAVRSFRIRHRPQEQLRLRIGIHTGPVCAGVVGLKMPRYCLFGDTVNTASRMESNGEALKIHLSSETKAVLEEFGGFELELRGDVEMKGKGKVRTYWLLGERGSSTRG
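HEK293 cells stably expressing human Npr1 and cGMP GloSensor pGS-40F, loaded 2 h with 2% GloSensor reagent, given compound 30 min at room temperature. Luminescence read before and 20 min after 0.1 nM hNppA.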
Starred values were filed as active, the others as inactive; u = inconclusive; [ ] = dose if it differs, or a comment. % is set by controls: 0 for no effect and ±100 for the full control effect; potency is the fitted concentration of half-maximal effect.

cpd	Molecule	hNpr1 antagonist
1	O=C(Nc1cccc(-n2cccn2)c1)C1CCCN(C(=O)N2CCOCC2)C1 (centres undefined)	2%
2	Cc1cccc(C(=O)N2C(C(=O)N3CCOCC3)COC23CCN(C(=O)CC(C)(C)C)CC3)c1 (centres undefined)	5%
3	Cc1ccc(C(=O)N2CCC3(CC2)CC(C(C)C)=NO3)cc1	0%[70.6 µM]
4	CSCC(=O)N1C[C@@H](NC(=O)Nc2cccc(SC)c2)C[C@H]1C(=O)N[C@@H](CCS(C)(=O)=O)C(N)=O	-2%
5	CN(C)c1nc2c(c(=O)[nH]1)CCN(CCc1ccccc1)CC2	2%
6	COCC1CN(C(C)=O)CC12CCN(Cc1ccc(F)cc1Cl)CC2 (centres undefined)	3%
7	Cc1cc2nc3n(c(=O)c2n1CC(=O)Nc1ccc2c(c1)OCO2)CCCCC3	-18%
8	Cc1nc(C2CCN(C(=O)C3(C(N)=O)CC3)CC2)cc(N2CCOCC2)n1	3%
9	Cc1nn(C)cc1C(=O)N1CC[C@H](N2CCN(C)CC2)[C@H](CCCO)C1	-3%
10	CC(C)c1nc2nccc(-c3ccc(F)cc3)n2n1	0%
11	O=C(c1ccc(F)cc1)N1C[C@@H]2C[C@H](C1)c1ccc(NS(=O)(=O)Cc3ccccc3)c(=O)n1C2	-2%
12	O=c1cc(CN2CCCC(CCc3ccccc3C(F)(F)F)C2)[nH]c(=O)[nH]1 (centres undefined)	-3%
13	Cc1ccc(CN2CCCCCCNC(=O)[C@@H]3C[C@@H](C(=O)NCCc4cnc[nH]4)C[C@@H]32)o1	-7%
14	CC1(CNC(=O)NCc2ccc(F)cc2)CCOCC1	2%
15	CC(C)NC(=O)N1CCN(C(=O)NC(C)C)[C@@H](C(=O)N[C@H](Cc2c[nH]c3ccccc23)C(N)=O)C1	-2%
16	Cn1ccnc1C(=O)N1CCC2(CC1)CC(Cc1nc(C3CC3)no1)CCO2 (centres undefined)	7%
17	N#Cc1ccccc1CN1CCCCCCNC(=O)[C@@H]2CCC[C@@H]21	2%
18	COc1ccc(CC2CN(Cc3cccc(-n4cccn4)c3)CCO2)cc1 (centres undefined)	u
19	CN(CCO)C(=O)c1cn2cc(-c3cccs3)n(CC3CC3)c(=O)c2n1	-4%
20	Cc1ccc(OC(C)c2nc(-c3cccnn3)no2)cc1C (centres undefined)	2%
21	C#CCNC(=O)[C@H]1C[C@@H](O)[C@H](O)[C@@H]2N=C(Nc3cccc4ccccc34)S[C@@H]21	5%[70.6 µM]
22	O=C(c1ccc(F)cc1)N1CC(Oc2cccc(-c3nc(-c4ccccc4)no3)c2)C1	6%
23	Cc1noc([C@@H]2CN(Cc3ccccc3C#N)C[C@H]2C(N)=O)n1	-1%
24	COc1ccc(Nc2cnc3ccc(N(C)Cc4cccnc4)nn23)cc1OC	u
25	Cn1nccc1C(=O)N1C[C@@H]2CCCN3CCC[C@@H]([C@H]23)[C@H]1CCCC(=O)N1CCOCC1	0%
26	O=C(NC1CCCCC1)N1CCC(c2noc(-c3cnccn3)n2)C1 (centres undefined)	4%
27	CSc1cccc(NC(=O)O[C@@H]2CC[C@]3(C)C(CC[C@@H](O)[C@H]3CC(=O)N3CCC(C)CC3)[C@]2(C)CO)c1 (some centres undefined)	-24%
28	O=C(Cc1ccc2c(c1)OCO2)N(Cc1ccncc1)Cc1cccc(OCCc2ccc(F)cc2)c1	u
29	COCC(=O)Nc1ccc([C@H]2OCC(=O)N(CC(C)C)[C@@H]2CO)cc1	-1%[70.6 µM]
30	O=C(O)c1ccc(CN2CCC[C@@H](O)[C@H](NC(=O)c3ccc(OCc4ccccc4)cc3)C2)cc1	7%
31	Cc1nc(-c2ccc(F)cc2)n(CC(=O)Nc2cccc(C(F)(F)F)c2)c(=O)c1CCO	u
32	CCc1noc(-c2cn(C3CCCN(C(=O)c4ccc(F)c(Cl)c4)C3)nn2)n1 (centres undefined)	0%
33	O=C(NC1CCCCC1)N1CCN(C(=O)N2CC3CC(C2)[C@H]2CCCC(=O)N2C3)CC1 (some centres undefined)	-1%
34	COc1ccccc1C(=O)N1CC(CNc2cccnc2)C2(C1)CN(c1ccccc1)C2 (centres undefined)	-6%[70.6 µM]
35	COc1ccc(OC)c(-c2nc3c(C)cccc3cc2CN2CCCC(O)C2)c1 (centres undefined)	4%
36	COCCNC(=O)[C@@H]1C[C@@H](c2ccc(F)cc2)N([S+](=O)([O-])c2cccnc2)C1	0%[70.6 µM]

Values in list order from above:
hNpr1 antagonist, entries 27 to 32 → -24%, u, -1%[70.6 µM], 7%, u, 0%

Next part:
cpd	Molecule	hNpr1 antagonist
37	Cc1ccccc1S(=O)(=O)N1CCC(n2cnnc2C2CC2)CC1	-8%
38	CC(C)c1nc2c(c(-c3ccc(O)cc3)n1)CN(C(=O)c1ccc(F)cc1)CC2	2%
39	O=C(N[C@H]1CO[C@H]2[C@@H]1OC[C@@H]2n1nnnc1Oc1ccc(-n2ccnc2)cc1)C1CCCCC1	-2%
40	COc1nccc(N2CCC(CC(=O)N3CCN(C(C)=O)CC3)CC2)n1	-21%
41	O=C1Nc2ccccc2CC12CCCCN2[S+](=O)([O-])c1cccs1 (centres undefined)	-13%
42	O=C(CN1C(=O)C(c2ccccc2)=NC12CCCCCC2)Nc1cccc(Cl)c1	0%
43	O=C(c1ccc(N2CCC(CO)CC2)nc1)N1CCC(N2CCOCC2)CC1	-1%
44	COc1ccc(CNC(=O)C[C@@H]2c3nc(NC(=O)c4c(F)cccc4F)sc3C[C@@H]3[C@](C)(CO)[C@H](O)CC[C@]32C)cc1	3%
45	COc1ccc(C2Cn3nnc(-c4noc(-c5ccccn5)n4)c3CO2)cc1 (centres undefined)	-22%
46	CCOC1CCOC2(CCN(C(=O)c3n[nH]c4ccccc34)CC2)C1 (centres undefined)	-1%
47	c1ccc2sc(C3CCCN(Cc4cc5n(n4)CCNC5)C3)nc2c1 (centres undefined)	2%
48	Cc1cnc(CNC(=O)C2(N3CCCCC3)Cc3ccccc3C2)cn1	7%
49	CC(=O)Nc1cccc(NC(=O)Cn2nc3c(cc2=O)CCCCC3)c1	4%
50	Cc1ccc(NC(=O)Cn2c(C)cc3nc4n(c(=O)c32)CCCC4)c(C)c1	-1%
51	COc1ccc2nc3n(c2c1)[C@@H](CNCc1ccc(C(=O)O)cc1)COC3	4%[70.6 µM]
52	CCN1c2cc(C(=O)NCc3ccc(SC)cc3)ccc2C(=O)N2CCCCCC21 (centres undefined)	-8%
53	O=C(c1ccoc1)N1C[C@@H](COc2ccncc2)[C@H](c2ccccn2)C1	0%
54	COC(=O)[C@@H]1Cc2ncn(Cc3ccc(OC)cc3)c2CN1C(=O)CCC(=O)O	3%[70.6 µM]
55	OCC1(O)CCCN(Cc2ccccc2Cn2cccn2)C1 (centres undefined)	0%
56	COc1ccc(Cl)cc1-c1ncc2c(n1)OCCN(Cc1ccc(F)cc1F)C2=O	-1%[70.6 µM]
57	O=C(c1ccccn1)N1CCCCCCn2c(nnc2-c2ccc(F)cc2)CC1	3%
58	CCC(c1cccs1)N1C(=O)[C@H]2CN(C(=O)NC)C[C@H]2C1=O (some centres undefined)	0%
59	COc1cccc(Nc2cc3c(cn2)CN(Cc2ccncc2)CCN3)c1	-25%[70.6 µM]
60	COC(=O)C1=CN(CC(=O)Nc2ccc(C(C)C)cc2)S(=O)(=O)N=C1C	-14%

Numbers 36 through 60 from above:
cpd	Molecule	hNpr1 antagonist
36	COCCNC(=O)[C@@H]1C[C@@H](c2ccc(F)cc2)N([S+](=O)([O-])c2cccnc2)C1	0%[70.6 µM]
37	Cc1ccccc1S(=O)(=O)N1CCC(n2cnnc2C2CC2)CC1	-8%
38	CC(C)c1nc2c(c(-c3ccc(O)cc3)n1)CN(C(=O)c1ccc(F)cc1)CC2	2%
39	O=C(N[C@H]1CO[C@H]2[C@@H]1OC[C@@H]2n1nnnc1Oc1ccc(-n2ccnc2)cc1)C1CCCCC1	-2%
40	COc1nccc(N2CCC(CC(=O)N3CCN(C(C)=O)CC3)CC2)n1	-21%
41	O=C1Nc2ccccc2CC12CCCCN2[S+](=O)([O-])c1cccs1 (centres undefined)	-13%
42	O=C(CN1C(=O)C(c2ccccc2)=NC12CCCCCC2)Nc1cccc(Cl)c1	0%
43	O=C(c1ccc(N2CCC(CO)CC2)nc1)N1CCC(N2CCOCC2)CC1	-1%
44	COc1ccc(CNC(=O)C[C@@H]2c3nc(NC(=O)c4c(F)cccc4F)sc3C[C@@H]3[C@](C)(CO)[C@H](O)CC[C@]32C)cc1	3%
45	COc1ccc(C2Cn3nnc(-c4noc(-c5ccccn5)n4)c3CO2)cc1 (centres undefined)	-22%
46	CCOC1CCOC2(CCN(C(=O)c3n[nH]c4ccccc34)CC2)C1 (centres undefined)	-1%
47	c1ccc2sc(C3CCCN(Cc4cc5n(n4)CCNC5)C3)nc2c1 (centres undefined)	2%
48	Cc1cnc(CNC(=O)C2(N3CCCCC3)Cc3ccccc3C2)cn1	7%
49	CC(=O)Nc1cccc(NC(=O)Cn2nc3c(cc2=O)CCCCC3)c1	4%
50	Cc1ccc(NC(=O)Cn2c(C)cc3nc4n(c(=O)c32)CCCC4)c(C)c1	-1%
51	COc1ccc2nc3n(c2c1)[C@@H](CNCc1ccc(C(=O)O)cc1)COC3	4%[70.6 µM]
52	CCN1c2cc(C(=O)NCc3ccc(SC)cc3)ccc2C(=O)N2CCCCCC21 (centres undefined)	-8%
53	O=C(c1ccoc1)N1C[C@@H](COc2ccncc2)[C@H](c2ccccn2)C1	0%
54	COC(=O)[C@@H]1Cc2ncn(Cc3ccc(OC)cc3)c2CN1C(=O)CCC(=O)O	3%[70.6 µM]
55	OCC1(O)CCCN(Cc2ccccc2Cn2cccn2)C1 (centres undefined)	0%
56	COc1ccc(Cl)cc1-c1ncc2c(n1)OCCN(Cc1ccc(F)cc1F)C2=O	-1%[70.6 µM]
57	O=C(c1ccccn1)N1CCCCCCn2c(nnc2-c2ccc(F)cc2)CC1	3%
58	CCC(c1cccs1)N1C(=O)[C@H]2CN(C(=O)NC)C[C@H]2C1=O (some centres undefined)	0%
59	COc1cccc(Nc2cc3c(cn2)CN(Cc2ccncc2)CCN3)c1	-25%[70.6 µM]
60	COC(=O)C1=CN(CC(=O)Nc2ccc(C(C)C)cc2)S(=O)(=O)N=C1C	-14%

Additional entries.
cpd	Molecule	hNpr1 antagonist
61	CC1=NOC2(CCN([S+](=O)([O-])c3cccs3)C2)C1 (centres undefined)	12%[70.6 µM]
62	CCNC(=O)N1C[C@@H](Oc2ccccc2)C[C@@H]1C(=O)N1CCOCC1	0%
63	Cc1ccc(CNC(=O)Cn2c(=O)c(-c3noc(C)n3)c3n(c2=O)CCCC3)cc1	5%
64	COc1ccc(C(=O)N2CCCN(c3nc4ncccc4o3)CC2)cc1	5%
65	O=C1NCCCCCCN(C(=O)Cc2cccnc2)[C@@H]2C[C@@H](c3nc(-c4cnccn4)no3)C[C@H]12	-1%
66	COc1ccc(C(=O)N2CCC3(CC2)CC(CO)N(C(=O)c2ccccc2)C3)cc1 (centres undefined)	0%
67	O=C1COCC2(CN1Cc1ccccc1)CN(C(=O)c1cncc(F)c1)C2	4%[70.6 µM]
68	O=C(Nc1ccccc1)N[C@H]1CO[C@H]2[C@@H]1OC[C@@H]2n1cc(CC2CCCCC2)nn1	0%[70.6 µM]
69	Cc1ccccc1CN1CC[C@@H]2OCC(=O)N(C(C)C)[C@H]2CC1	7.9µM*
70	CN(C)[C@@H]1CN(C(=O)c2ccc(F)cc2Cl)C[C@H]1CO	4%
71	COc1cccc(CCC(=O)N(C)C2CCc3nn(CC4CC4)c(=O)n3CC2)c1 (centres undefined)	-2%
72	O=C(O)CCC1CCN(c2cc(NC3CC3)ncn2)CC1	0%

The last two compounds of the section above lead into the next.
cpd	Molecule	hNpr1 antagonist
71	COc1cccc(CCC(=O)N(C)C2CCc3nn(CC4CC4)c(=O)n3CC2)c1 (centres undefined)	-2%
72	O=C(O)CCC1CCN(c2cc(NC3CC3)ncn2)CC1	0%
73	CC(C)=CCN1CCNC(=O)C1CC(=O)O (centres undefined)	2%
74	COCC1CN(S(=O)(=O)c2ccc(F)c(C)c2)CC12CCNCC2 (centres undefined)	-3%
75	Cc1ccncc1C(=O)N1C[C@@H](Oc2ccccc2)C[C@H]1C(=O)N1CCOCC1	0%
76	Cc1nn(C)c(C)c1S(=O)(=O)N1CCCC1c1noc(COc2ccc(F)cc2)n1 (centres undefined)	-1%
77	CCc1nc(C)sc1C(=O)N1C[C@@H](CN2CCCN(C)CC2)[C@@H](CO)C1	9%
78	c1ccc(-c2noc(-c3cncnc3N3CCN(c4ccccc4)CC3)n2)cc1	-21%
79	COc1ccc(C2Cn3cnc(C(=O)N4CCC(C(=O)Nc5ccc(C)c(C)c5)CC4)c3CO2)cc1 (centres undefined)	-24%
80	Cc1cn2nc(C(=O)Nc3ccc(F)cc3C)cc2c(N(C)Cc2ccccc2)n1	21%
81	CN(CC1CCOCC1)C(=O)Nc1cc(F)ccc1F	-3%
82	O=C(c1ccc(F)cc1)N1CCn2c(nnc2-c2ccccc2)C1	-9%[70.6 µM]
83	CN(C)c1ccc(C(=O)N[C@H]2C[C@H]3C(=O)NC[C@@H](CCC(=O)N4CCCCC4)N3C2)cc1	-1%
84	CC(C)(C)C1CCC2(CC1)NC(=O)N(CC(=O)N1CCN(c3ccccc3F)CC1)C2=O (centres undefined)	-2%
85	COc1cccc(C2=NOC(C(=O)NC(C)C)C2)c1 (centres undefined)	6%
86	COc1ccc(CC(=O)N2CCC(c3n[nH]c(=O)n3-c3ccccc3)CC2)cc1Cl	10%
87	CCn1ccc2oc(C)c(C(=O)NCc3ccc(F)cc3Cl)c2c1=O	1%
88	CSc1ccc(CN2CCC(CO)(CN3CCCC3)CC2)cc1	4%
89	Cc1ccccc1C(=O)N1CC(c2nnc(C(C)C)o2)C2(CCOCC2)C1 (centres undefined)	5%

Some of the compounds tested (hit frequency here may not be typical).
